Source: PubChem (The Scripps Research Institute Molecular Screening Center)
PfM18AAP inh – PfM18AAP enzyme inhibition; actives 1.2% (n = 290,000); inhibition, % at 7.35 µM; recombinant PfM18AAP, H-Glu-NHMec fluorogenic cleavage;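 active = inhibition above the campaign mean inhibition over all tested compounds plus 3 SD, cut at about 28% in these data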;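 also: 0% = plate median of test compound wells and 100% = 2 mM ZnCl2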
IDE inh – inhibits human insulin-degrading enzyme in HEK cells; inhibition, % at 5.59 µM; P14735; FAbetaB cleavage, fluorescence polarization; actives 0.41% (n = 320,000);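 active = percent inhibition above the average of all tested compounds plus 3 SD, set per screening campaign, cut at about 16% in these data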;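 also: IDE supplied by intact live HEK cells; FP after avidin binding of uncleaved biotin substrate so inhibition keeps polarization high; 0% = DMSO wells and 100% = 60 µM reference IDE inhibitor Ii1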
DNA FID counter – counter-screen for HCV NS3 helicase inhibitors: DNA intercalator displacement; DNA fluorescent intercalator displacement, fluorescence; actives 0.17% (n = 290,000); AID 1845; inhibition, % at 7.9 µM; in the data active = inhibition above about 37%;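 also: 0% = vehicle and 100% = reference compound; higher means more ethidium bromide displaced from hairpin DNA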
VIM-2 inh – blocks Pseudomonas aeruginosa VIM-2 metallo-beta-lactamase | purified VIM-2, nitrocefin hydrolysis, epi-absorbance fluorescence | inhibition, % at 5.6 µM | actives 0.89% (n = 290,000);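 active = inhibition above the mean of all tested compounds plus 3 SD, cutoff set per screening run, cut at about 7.5% in these data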;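 also: red hydrolysis product quenches plate fluorescence so inhibitors raise well fluorescence; 0% = enzyme with DMSO and 100% = DMSO without enzyme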
IDE act – IDE (human) activation, cell-based; HEK cells, FAbeta-B cleavage, fluorescence polarization; 0% vehicle, 100% cell-free pure enzyme wells; activation, % at 5.96 µM; actives 0.073% (n = 340,000);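 active = activation above the mean of all tested compounds plus 3 SD, set per screening campaign, cut at about 17% in these data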
Numbers without * were called inactive; nt = no result given; & = joins results of further samples. These rows are one share of the data; count on the stated rates, not on these rows.

canonical_smiles	PfM18AAP inh	IDE inh	DNA FID counter	VIM-2 inh	IDE act
CC(C)(C(=O)O)c1ccc(C(O)CCCN2CCC(C(O)(c3ccccc3)c3ccccc3)CC2)cc1 (centres undefined)	-3	2	-7	0.5	3
COc1ccc(-c2csc(Nc3ccccn3)n2)cc1	-2	13	-2	0.6	0
Cc1cc(N2C(=O)C(O)=C(C(=O)c3ccc(C)o3)C2c2ccc(OCc3ccccc3)cc2)no1 (centres undefined)	9	-9	-53	-1.5	1
O=C(O)CCc1nc(-c2ccccc2)c(-c2ccccc2)o1	15	2	-37	-0.4	nt
COc1ccc(-c2cn[nH]c2-c2ccc(OC)cc2)cc1	0	-2	-17	-0.6	-1
Cn1c(SCC(=O)NC(=O)NCc2ccco2)nnc1-c1ccccc1	12	-9	-10	0.7	2
CN(C)S(=O)(=O)c1ccc(Cl)c(NC(=O)COC(=O)/C=C/c2ccco2)c1	-1	-1	-6	-0.1	-2
Cc1cnc(NC(=O)C2C(=O)c3ccccc3S(=O)(=O)N2C)s1 (centres undefined)	nt	-1	nt	nt	9
O=C(COC(=O)/C=C/c1ccco1)Nc1ccccc1	-18	-3	-8	-0.2	3
CN1C2CC(OC(=O)C(CO)c3ccccc3)CC1C1OC12 (centres undefined)	15&-8	-2&6	0&1	-3.5&0.1	1&-2&1
Cc1ccc(SCC(=O)NC(=O)NCc2ccco2)c(C)c1	3	4	-16	-2.3	5
CCCC(=O)Nc1ccc(OCC(O)CNC(C)C)c(C(C)=O)c1 (centres undefined)	3	5	1	0.0	4
CC(C)NCC(O)COc1cccc2ccccc12 (centres undefined)	nt	5	nt	nt	8
COc1ccc(CC(=O)Nc2nc3ccccc3[nH]2)cc1	14	3	-3	-0.6	9
O=C(/C=C/c1ccco1)Nc1ccccc1C(=O)O	-17	8	-8	-3.4	nt
CN/C(=C/[N+](=O)[O-])NCCSCc1ccc(CN(C)C)o1	3	-4	0	-2.7	7
O=C(COC(=O)c1ccccc1Oc1ccccc1)NCc1ccco1	8	6	-14	-1.7	1
Nc1ccc(OCCc2ccccc2)cc1	-1	3	-1	-1.7	12
COC(=O)C1=C(C)NC(C)=C(C(=O)OCCN(C)Cc2ccccc2)C1c1cccc([N+](=O)[O-])c1 (centres undefined)	0	-3	8	-2.9	-4
O=C(O)COCCN1CCN([C@H](c2ccccc2)c2ccc(Cl)cc2)CC1	6	4	-15	-0.8	0
Cc1cnc(NC(=O)C2=C(O)c3ccccc3S(=O)(=O)N2C)s1	4&5	3&1&5&3	-10&-8	-0.6&-4.9	0&9&5&-2
CN=C(C[N+](=O)[O-])NCCSCc1ccc(CN(C)C)o1	nt	2	nt	nt	2

Four compounds from above, arranged by length of the SMILES, highest first.
canonical_smiles	PfM18AAP inh	IDE inh	DNA FID counter	VIM-2 inh	IDE act
COC(=O)C1=C(C)NC(C)=C(C(=O)OCCN(C)Cc2ccccc2)C1c1cccc([N+](=O)[O-])c1 (centres undefined)	0	-3	8	-2.9	-4
O=C(O)COCCN1CCN([C@H](c2ccccc2)c2ccc(Cl)cc2)CC1	6	4	-15	-0.8	0
CCCC(=O)Nc1ccc(OCC(O)CNC(C)C)c(C(C)=O)c1 (centres undefined)	3	5	1	0.0	4
COc1ccc(-c2cn[nH]c2-c2ccc(OC)cc2)cc1	0	-2	-17	-0.6	-1

Ordered by the number under IDE inh (smallest number first): three from the list above.
mol | IDE inh
Cc1cc(N2C(=O)C(O)=C(C(=O)c3ccc(C)o3)C2c2ccc(OCc3ccccc3)cc2)no1 (centres undefined) | -9
CC(C)(C(=O)O)c1ccc(C(O)CCCN2CCC(C(O)(c3ccccc3)c3ccccc3)CC2)cc1 (centres undefined) | 2
Cc1ccc(SCC(=O)NC(=O)NCc2ccco2)c(C)c1 | 4

Complete entries, looked up by structure. Screens in order: PfM18AAP inh | IDE inh | DNA FID counter | VIM-2 inh | IDE act
Shown for O=C(O)COCCN1CCN([C@H](c2ccccc2)c2ccc(Cl)cc2)CC1 → 6 | 4 | -15 | -0.8 | 0
Shown for COc1ccc(CC(=O)Nc2nc3ccccc3[nH]2)cc1 → 14 | 3 | -3 | -0.6 | 9
Shown for Nc1ccc(OCCc2ccccc2)cc1 → -1 | 3 | -1 | -1.7 | 12
Shown for COc1ccc(-c2csc(Nc3ccccn3)n2)cc1 → -2 | 13 | -2 | 0.6 | 0
Shown for O=C(COC(=O)/C=C/c1ccco1)Nc1ccccc1 → -18 | -3 | -8 | -0.2 | 3
